# AID504770: growth inhibition of E. coli YBA685, primary screen, V. cholerae RctB inhibitors | AID 504770, 2011 | E. coli YBA685 rctB-dependent plasmid, OD600 growth, 3 h; stronger effect = lower value | z-score (concentration not given with the values) | 0.27% of 130,000 active;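 active = z-score under -2 on both plates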;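 note: wells of about 30 µL received 100 nL stock; score is relative to mean and SD of the test wells; the first replicate is given; strong numbers were not always called active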
# Ba CapD inh: Bacillus anthracis CapD inhibitors, primary screen, biochemical, fluorescence intensity; z-score (no concentration beside the values); CapD gamma-glutamyltranspeptidase (Bacillus anthracis Ames Ancestor); AID 492967, 2010; 0.23% of 140,000 active; purified CapD enzyme, fluorescence intensity read-out; stronger effect = lower value; some hits fall short of the stated cut;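 active = z-score under -4 in either of two replicates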;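 note: stock transfer was 100 nL into about 40 µL; score is relative to mean and spread of the plate; one replicate is shown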
# Active calls of the source: *; nt = no result given.
SMILES,AID504770,Ba CapD inh
CCOC(=O)c1[nH]c(C)c(C(=O)OCC(=O)N2CCC(c3ccccc3)=N2)c1C,0,nt
Cc1ccccc1Nc1nc(N)nc(CSc2nc3ncc(Cl)cc3[nH]2)n1,-0.65,nt
CC(C)(C)c1cn(-c2ccc(Cl)cc2)c(=S)[nH]1,-0.6,0.54
COc1nonc1-n1nnc(C(=O)c2ccccc2)c1C,-1.4,-0.08
COc1ccccc1OCCn1cc(C=C2C(=O)NC(=S)NC2=O)c2ccccc21,nt,-0.23
CCn1c(=O)c(C(=O)CN(C)Cc2ccc(F)cc2)c(N)n(Cc2ccccc2)c1=O,0.25,nt
O=C(NC(=O)c1ccccc1Cl)c1ccccc1O,-0.45,-0.9
CCOC(=O)c1ccc(Cl)c(NC(=S)N(C)C)c1,-0.5,0.97
CN(Cc1ccco1)C(=O)c1cc2c(s1)-c1ccccc1OC2,0.6,104
COc1ccc(NC(=O)CCCn2c(=O)c3sccc3n(Cc3ccccc3)c2=O)cc1,-0.15,2.2
Fc1ccc(Nc2cccc3nonc23)cc1,-0.45,3.5
C=CCN(CC=C)Cc1c(C)[nH]c2ccc(OCC)cc2c1=O,1.6,42
O=C(Cn1ccc(=O)[nH]c1=O)NCc1ccc(Cl)cc1,1.1,nt
O=C(CSc1ccc(-c2ccc(F)cc2)nn1)N1CCOCC1,0,nt
N=C1S/C(=C/c2ccc(-c3cccc(F)c3)o2)C(=O)N1c1nccs1,nt,-0.03
O=S(=O)(Nc1ccc(Oc2cc(C(F)(F)F)cc(C(F)(F)F)c2)cc1)c1cc(C(F)(F)F)cc(C(F)(F)F)c1,nt,0.74
Cn1c(C(=O)NCCCN2CCCCC2)cc2sccc21,-0.45,-0.085
Cc1n[nH]c(=O)nc1NCCN(C)C,-1.2,-0.22
Cc1cc(-c2nc3ncccc3o2)ccc1NC(=O)C(C)(C)Oc1ccc(Cl)cc1,-0.6,79
Cc1cccc(CN2C(=O)/C(=C\c3ccc(C(=O)N4CCN(C)CC4)cc3)Oc3ccccc32)c1,-0.1,46
CC1CCC2(CC1)NC(=O)N(NC(=O)CN1CCN(Cc3nc4ccccc4s3)CC1)C2=O (stereo not given),-0.45,nt
CCN(CC)CCn1c(NC(=O)c2cc3c(s2)CCCC3)nc2ccccc21,0.75,nt
CNc1cccc2cccc(OC)c12,-0.7,79
CCCCCC1CCC(c2ccc(NS(=O)(=O)c3ccc(C)cc3)cc2)CC1 (stereo not given),nt,-0.23
COc1ccccc1OCCN1CCN(c2ccccc2)CC1,-0.3,0.18

# (further entries)
SMILES,AID504770,Ba CapD inh
O=C(Oc1cccc2cccnc12)c1ccccc1,1.1,nt
Cc1c(N=Cc2ccc(F)cc2)c(=O)n(-c2ccccc2)n1C,nt,0.48
c1nc(N2CCN3CCCC3C2)c2[nH]cnc2n1 (stereo not given),0.45,0.92
CN1CCN(C(=O)C2CCCN(S(=O)(=O)N3CCCCC3)C2)CC1 (stereo not given),1.6,-0.72
CC1(C(=O)Nc2nc3ccccc3s2)CCCC1,0.35,-0.065
Cc1ccc(CN(C)C(=O)Cc2csc(-c3ccccc3)n2)o1,0.05,nt
COc1cccc(NC(=O)NCCc2nnc(SC)n2C)c1,0.75,nt
CC(=O)NC1C(OC2CCCCC2)OC(CO)C(O)C1O (stereo not given),0.8,nt
OC1CCNC(=S)N1c1ccccc1 (stereo not given),-0.55,nt
Cc1c(OCc2ccccc2)c(=O)ccn1Cc1ccc(Cl)c(Cl)c1,nt,-0.48
Cc1nc(SCC(=O)NC(N)=O)c2c(-c3cccs3)csc2n1,-0.65,nt
COc1ccc(OC)c(C2=NOC(C(=O)N3CCCc4ccccc43)C2)c1 (stereo not given),-0.1,-1.1
CCC(C)(C)c1cc2cc(NS(=O)(=O)c3ccc(OC)cc3)ccc2[nH]1,nt,-0.33
CCc1cccc(C)c1NC(=O)N(C)C1CCCCC1,2.1,-1.1
CN(C)C(=O)Oc1nnc(SCCS(=O)(=O)c2ccc(F)cc2)n1-c1ccccc1,-0.5,0.73
COC(=O)c1scc(S(=O)(=O)C(C)C)c1N,nt,46
CC1(C)CC(NC(=O)/C=C/c2ccccc2)CC(C)(C)N1,0,0.48
CC(C)(C)C(=O)CSc1nc2ccccc2c(=O)n1-c1ccc(F)cc1F,-0.1,0.03
N#Cc1ncc(C(F)(F)F)cc1OCc1ccccc1Cl,0.3,0.53
CCN(C(=O)/C=C/c1ccccc1)c1ccccc1,0.7,0.43
OCC1OC(Sc2ccccc2)C(O)C(O)C1O (stereo not given),-0.05,0.49
Cc1ccccc1Nc1nc(N)nc(CSCc2c(C)noc2C)n1,-0.2,nt
CC(=O)Nc1c2c(nn1C(C)(C)C)CSC2,0.45,0.55
CN(C)CCCN(C)C(=O)CCc1c[nH]c2ccccc12,nt,0.61
O=C(OCCCN=C1NS(=O)(=O)c2ccccc21)c1ccc(Br)cc1,nt,0.15

# (list continues)
SMILES,AID504770,Ba CapD inh
CC1(C)COC(CC(=O)c2cccs2)=N1,-0.75,nt
C1=CCC(C2OCC(CN3CCOCC3)O2)CC1 (stereo not given),-0.35,-0.32
CCCC/C(O)=C1/C(=O)CC(C)(C)CC1=Nc1ccccc1OC,1.3,-0.74
Cc1cccc2oc3cc(Nc4ccccc4)c4c(=O)c5ccccc5c(=O)c4c3[nH]c12,nt,0.71
O=C(Nc1cc(Cl)ccc1Oc1ccc2ccccc2c1Br)c1cc(Cl)cc(Cl)c1O,nt,34
O=C(O)CCN1CCCC1,-0.3,nt
Cc1[nH]c(=O)c(C#N)c(C)c1CCC(=O)N(C)CC(=O)Nc1ccc(Cl)c(Cl)c1,-0.75,nt
O=C(O)CCC(=O)c1ccc(Cl)s1,-1.6,1.2
CCOc1ccc(C2=C(C)SC(=Nc3ccc(Cl)cc3)NN2)cc1,-0.8,-0.3
CCC(=O)N1CCc2cc(S(=O)(=O)NCCC(=O)Nc3ccc(Br)cc3C)ccc21,0.8,-1.7
COc1cc(C(=O)O)nc(OC)n1,nt,-0.15
O=S(=O)(Oc1cc(Cl)cc(Cl)c1)c1cc(C(F)(F)F)cc(C(F)(F)F)c1,nt,0.9
CC(C)C(=O)N(C)Cc1cc2ccccc2[nH]c1=O,-0.55,nt
CCOC(=O)C1=C(CS(=O)(=O)c2ccccc2)NC(=O)NC1c1ccc(SC)cc1 (stereo not given),1.6,0.09
COc1ccc(NC(=S)N(CCC#N)C2CCCCC2)cc1,nt,-0.095
CN1C(=O)/C(=C2\SC(=S)N(NC(=O)c3ccccc3Cl)C2=O)c2ccccc21,nt,0.07
COC(=O)c1nc2c(C)cccn2c1F,0.1,4.7
CCN(CC)C(=O)NCc1ccccn1,-0.8,0.41
COc1ccc(-c2nnc(NC(=O)CC(C)C)s2)cc1,0.45,52
Cc1ccc2c(c1)C(=O)c1cc3ccccc3nc1-2,nt,-0.015
COc1ccc(NCc2ccc3c(c2)CCN3C)cc1,nt,1.4
O=C(NC1(c2ccccc2)CC1)c1ccccc1,-0.65,-1.1
C=CCNC(=O)c1cc2c(=O)c3ccccc3oc2nc1C,-0.35,0.94
COC(=O)c1sccc1NC(=O)/C=C/c1cccs1,0.2,nt
CCOc1ccc(NC(=O)OC(C)(C)C)cc1,-0.8,0.11

# A second format for four compounds above:
Cc1cccc(CN2C(=O)/C(=C\c3ccc(C(=O)N4CCN(C)CC4)cc3)Oc3ccccc32)c1
  AID504770: -0.1
  Ba CapD inh: 46
CC1(C(=O)Nc2nc3ccccc3s2)CCCC1
  AID504770: 0.35
  Ba CapD inh: -0.065
COc1ccccc1OCCN1CCN(c2ccccc2)CC1
  AID504770: -0.3
  Ba CapD inh: 0.18
Cc1c(N=Cc2ccc(F)cc2)c(=O)n(-c2ccccc2)n1C
  AID504770: nt
  Ba CapD inh: 0.48

# More records follow.
SMILES,AID504770,Ba CapD inh
O=C(Cn1cc2c(n1)CCCC2)NCCc1ccccc1,1.5,-0.24
CCOC(=O)N1CCN(C2=Nc3cccc4cccc2c34)CC1,2.9,nt
Cc1cc(=O)oc2cc(OC(C)C(=O)NCC3CCCO3)ccc12 (stereo not given),-1,91
Cc1nn(-c2ccccc2)c(C)c1Sc1ccccc1N,1.3,-0.32
CCC[C@@H]1C[C@@H](C(=O)N[C@@H](C2O[C@H](SC)[C@H](O)[C@@H](O)[C@H]2O)[C@H](C)Cl)N(C)C1 (stereo not given in full),nt,-0.44
Cc1ccc(Sc2c(C(=O)O)cnc3c2c(C)nn3C)cc1,-0.85,-1.4
COc1ccc(/C(C#N)=C/c2ccccc2OC)cc1,nt,0.95
Cc1ccc(C(=O)C(O)(O)C(F)(F)F)cc1,nt,-0.4
O=C(Nc1ccc(-c2noc(-c3cccs3)n2)cc1)c1ccc(Br)o1,nt,-0.27
Cc1[nH]n(-c2ccc([N+](=O)[O-])cc2)c(=O)c1C=NCCc1ccc(S(N)(=O)=O)cc1,nt,-1.6
CC1CCCN(S(=O)(=O)c2ccc3[nH]c(=O)cc(C(=O)NCCCN4CCCCC4C)c3c2)C1 (stereo not given),0.15,0.7
NC(=O)c1ccc(NC(=O)c2cn(-c3ccccc3)nc2-c2cccs2)cc1,-0.4,6.8
CCn1c(NC(=O)C2CCCCC2)nc2ccccc21,nt,0.22
CCn1c(CCNC(=O)C2(c3ccc(Cl)cc3)CCC2)nnc1SC,-0.1,nt
COc1ccc(-c2nn[nH]n2)cc1,1.9,nt
O=S(=O)(NCC1CCN(S(=O)(=O)c2ccccc2)CC1)c1cccc2nonc12,-0.15,-1.2
Clc1cc(NCc2ccc3c(c2)OCO3)ccc1N1CCOCC1,0.15,-0.075
CC(C)N(CCC#N)C(=O)c1c[nH]c2ccccc2c1=O,-0.45,-0.55
N=c1oc2c(Cl)cc(Cl)cc2cc1C(=O)Nc1ccc(F)cc1,-2.2,nt
CC1CCc2sc(NC(=O)c3cccs3)c(C#N)c2C1 (stereo not given),0.2,-0.52
COc1ccc(Sc2ccc(OC)cc2C(=O)O)c(C(=O)O)c1,1.9,0.39
O=C(Cn1ncc2ccccc21)NCC1CCCO1 (stereo not given),-0.4,-2
CCOC(=O)c1c(C)n(-c2ccc(OC)cc2)c2ccc(OC(=O)C#Cc3ccccc3)cc12,nt,-0.96
CCOC(=O)c1c(C)oc2c1c1c(c3ccccc32)OCN(CCO)C1,1.2,-0.23
C=CCn1c(Cc2cccs2)nnc1SCC(=O)Nc1ccc(C)c(C)c1,-0.65,-0.31

# More records.
SMILES,AID504770,Ba CapD inh
CCOc1ccc(C2CC(=O)NC(SCC(=O)OCc3ccccc3)=C2C#N)cc1 (stereo not given),nt,0.33
O=S(=O)(Nc1cc2c3c(oc2c2ccccc12)CCCC3)c1ccccc1,nt,-0.28
c1nc(N2CCCC2)c2c3c(sc2n1)CCC3,-0.9,nt
CCOC(=O)C(C)Sc1ncnc2c1oc1ccccc12 (stereo not given),-0.2,-0.44
COCc1ccc2oc(C(=O)O)cc2c1,0.3,14
CCOc1ccc(N2CCN(C(=O)OCCN(C/C=C/c3ccccc3)C(=O)OC(C)(C)C)CC2)cc1,nt,-0.32
O=S(=O)(c1ccccc1F)N1CC=C(c2ccccc2)CC1,-0.65,0.21
O=C1NC2(CCCCC2)N(C(=O)c2cccs2)C2=C1CCCC2,0,0.47
CCOC(=O)CNC(=O)c1cc(-c2ccc(Cl)c(Cl)c2)nc2ccccc12,nt,3.2
CCC1Cc2c(nc(N)c3c(N)nc(N(CC)CC)c(C#N)c23)O1 (stereo not given),0.7,nt
NNc1ncnc2cc(-c3ccc(Br)cc3)sc12,-0.4,nt
CC(/C=C(\C#N)c1ccc([N+](=O)[O-])cc1)Cc1ccc(C(C)(C)C)cc1 (stereo not given),nt,-0.085
CCCCCC1CC(O)C=C(C)C1C(=O)OC (stereo not given),-0.15,-0.3
CCN1CCC(=NO)CC1,-0.35,0.29
Cc1[nH]c2ccc(-c3nnc(SCC(=O)N4CCCC4)o3)cc2c1C,-0.9,nt
O=C(Cc1cn2ccsc2n1)Nc1ccc(Cl)cc1,-0.6,nt
CCN1CCCC1CNC(=O)C1(O)c2cc(Br)ccc2NC(=O)N1c1ccc(Cl)cc1 (stereo not given),-0.3,0.53
O=c1c2ccccc2nnn1CSc1nnc(-c2ccco2)o1,1.5,nt
Cc1cc(C)cc(NC(=O)CSCc2cnn(-c3ccccc3)c2-n2cccc2)c1,0.25,-0.17
C=C(C)CS(=O)(=O)c1ccccc1,0.7,0.24
O=S(=O)(c1ccc(Cl)s1)N1CCN(Cc2ccc(Cl)cc2)CC1,nt,0.42
CN(Cc1nc(-c2ccccc2)cs1)C(=O)NC1(c2ccccc2)CC1,0.55,0.21
Cc1cc(C)cc(N2C(=O)/C(=C\c3ccc(N4CCCCC4)cc3)C(=O)NC2=S)c1,-0.25,-0.63
CCS(=O)(=O)c1ccc(OC)c(-n2c(O)c[nH]c2=O)c1,-1.9,nt
O=C1CN(S(=O)(=O)c2ccc(F)cc2)CCN1,1.2,nt
O=C(O)c1ccc(Cn2nc(N3CCCCC3)ccc2=O)o1,2.2,-0.32
COc1cccc2cc(C(C)O)oc12 (stereo not given),-3.1,0.21
CCC(C)(C)NC(=O)c1cccc(NC(=O)C(C)C)c1,0.75,0.2
CCOC(=O)C1CC2CN(C(=O)c3ccccc3)CC(C1)C2=O (stereo not given),-0.2,nt

# Six neighbouring compounds out of the list so far, quoted:
SMILES,AID504770,Ba CapD inh
CCS(=O)(=O)c1ccc(OC)c(-n2c(O)c[nH]c2=O)c1,-1.9,nt
O=C1CN(S(=O)(=O)c2ccc(F)cc2)CCN1,1.2,nt
O=C(O)c1ccc(Cn2nc(N3CCCCC3)ccc2=O)o1,2.2,-0.32
COc1cccc2cc(C(C)O)oc12 (stereo not given),-3.1,0.21
CCC(C)(C)NC(=O)c1cccc(NC(=O)C(C)C)c1,0.75,0.2
CCOC(=O)C1CC2CN(C(=O)c3ccccc3)CC(C1)C2=O (stereo not given),-0.2,nt
